Bioassay records from PubChem BioAssay.
PMP22 txn prim – modulators of PMP22 gene transcription in S16 Schwann cells; Potency, µM (doses to about 57.5 µM), for inactives: at the highest dose activity change, negative = inhibition, hits mostly inhibitors; hit rate 2% among 43,000; AID 1508649; S16 Pmp22-F2sN Schwann cells (luciferase reporters placed in the Pmp22 gene), FLuc/NLuc coincidence luminescence, 24 h; active = clear falling dose curves in both reporters; inconclusive = both reporters move, but less clearly or upward; inactive = either reporter flat; the % is the NLuc reporter signal; note: % is set by controls: 0 for no effect and ±100 for the full control effect; some results filed as inactive show a strong effect at the top dose
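Rat S16 Pmp22-F2sN cells, 500-1,000/well in phenol red-free DMEM + 10% FBS, compound-treated 24 h (37C, 5% CO2). Luminescence: FLuc read, Stop&Glo added, NLuc read.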
HTT promoter inh – inhibitors of huntingtin promoter activity. HEK293 HTT promoter firefly luciferase reporter (activity 0% = vehicle and -100% = no light), 24 h. Potency, µM (titrated, usually from 57.5 µM), for the others: at the highest dose activity change, negative = inhibition, most hits filed as inhibitors. AID 1508623. hit rate 0.93% among 48,000; active = well fitted inhibition curve with a large enough effect; inconclusive = small, poorly fitted or top-dose-only effect; inactive = no such curve, though single readings can be large or run the other way; note: nearly all actives have a fitted effect of over 50% in size
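HEK293 Fluc reporter, 2,500 cells/well, 24 h pre-culture; cpds up to 57.5 uM final, 24 h 37 degrees C; Dual-Glo, 10 min RT; normalized vehicle = 0%, zero RLU = -100%.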
Active calls of the source: *; u = inconclusive; x = not tested or not shown; [ ] = dose if it differs, or a comment. Potency is the fitted concentration of half-maximal effect. This is a subset. The share of hits here may be higher or lower than overall.

| mol | PMP22 txn prim | HTT promoter inh |
| --- | --- | --- |
| Cc1ccc(OCC(=O)Nc2ccc(Cl)cc2C(=O)c2ccccc2)cc1C | 8% | -1% |
| Nc1c(Cl)c(Cl)c(Cl)c(Cl)c1Cl | x | -2%[116 µM] |
| CCOC(=O)c1ccc(NC(=O)c2cccn(Cc3ccccc3F)c2=O)cc1 | u | 1.4µM* |
| c1ccc(C2CC2)c(OCC2=NCCN2)c1 | x | 7% |
| CCOC(=O)c1ccc(NC(=O)c2sc3nc4c(cc3c2N)N2CCC4CC2)cc1 | u | u |
| CCOc1ccccc1CN(CCc1ccc2c(c1)OCO2)Cc1ccc(CC)cc1 | -32% | -19% |
| CN1CCC(N(Cc2ccccc2)c2ccccc2)CC1 | x | -15% |
| CCCCc1nc2ccccc2c(=O)n1-c1cccc(OC)c1 | -16% | -17% |
| C[C@]12CCC(=O)C(O)=C1CC[C@@H]1[C@H]3CCC(=O)[C@@]3(C)CC[C@@H]12 | x | -10% |
| Cc1ccc(-c2nc(CN3C(=O)CN=C(c4ccccc4)c4cc(Cl)ccc43)c(C)o2)cc1 | u | u |

New compounds follow:
| mol | PMP22 txn prim | HTT promoter inh |
| --- | --- | --- |
| N#CC(C#N)=Cc1ccc(O)c(O)c1 | x | 16% |
| CCC(C)C(C)(COC(N)=O)COC(N)=O (stereo unspecified) | x | 4% |
| CCOc1ccc(CN2C(=O)c3ccccc3Sc3ccc(C(=O)N4CCC5(CC4)OCCO5)cc32)cc1 | u | -26% |
| COc1ccc(-c2nn3c(=O)cc(CN4CCN(C(=O)COc5ccc(F)cc5)CC4)nc3s2)cc1 | u | -21% |
| CC[C@@H](CO)NC(=O)[C@@H]1C=C2c3cccc4c3c(cn4C)C[C@H]2N(C)C1 | x | 12% |
| O=c1[nH]c2ccc(Cl)cc2c(N[C@@H]2CN3CCC2CC3)c1-c1nc2ccccc2[nH]1 | x | u |
| O=c1[nH]c2ccccc2c(=O)n1-c1ccc(Cl)c(Cl)c1 | 5% | 4% |
| O=C(CN1C(=O)CN=C(c2ccccc2)c2ccccc21)Nc1cccc(C(F)(F)F)c1 | -23% | -19% |
| Cc1sc2c(c1C)C(c1ccc(Cl)cc1)=N[C@@H](CC(=O)Nc1ccc(O)cc1)c1nnc(C)n1-2 | x | 71%[activator] |
| CCCC[N+]1(C)[C@@H]2CC(OC(=O)[C@H](CO)c3ccccc3)C[C@H]1[C@@H]1O[C@@H]12 (stereo partly specified) | x | -1% |

Continued:
| mol | PMP22 txn prim | HTT promoter inh |
| --- | --- | --- |
| CC(C)(C)NC[C@H](O)c1ccc(O)cc1Cl | x | -2% |
| COP(=S)(OC)Oc1ccc(Sc2ccc(OP(=S)(OC)OC)cc2)cc1 | x | -1% |
| O=C1c2ccccc2C(=O)c2ccccc21 | x | -3%[25.2 µM] |
| COc1cc(CCN)cc(OC)c1OC | x | -14%[116 µM] |
| CCOP(=S)(OCC)Oc1ccc2c(C)c(Cl)c(=O)oc2c1 | x | 14% |
| Cc1cc(C)cc(-n2c(=O)[nH]c3ccccc3c2=O)c1 | 2% | -10% |
| CC(C)=CC1C(C(=O)OCN2C(=O)C3=C(CCCC3)C2=O)C1(C)C (stereo unspecified) | x | -10% |
| CC(C)(N)Cc1ccc(Cl)cc1 | x | 12% |
| COC(=O)[C@@H](N)CCCN=C(N)N[N+](=O)[O-] | x | -25% |
| CC[C@]1(O)CC[C@H]2[C@@H]3CCC4=CCCC[C@@H]4[C@H]3CC[C@@]21C | x | -7% |

Other compounds:
| mol | PMP22 txn prim | HTT promoter inh |
| --- | --- | --- |
| Cc1nc2ccccc2c(=O)n1-c1ccccc1Cl | x | -18%[116 µM] |
| NC(=O)CN1CCCC1=O | x | -4% |
| CC1=C2C[C@@H]3[C@@H](CC=C4C[C@@H](O)CC[C@@]43C)[C@@H]2CC[C@]12O[C@H]1C[C@H](C)CN[C@H]1[C@H]2C | x | 9% |
| NC(=O)c1cc([N+](=O)[O-])cc([N+](=O)[O-])c1 | x | 4% |
| Nc1c(C(=O)Nc2ccc(Br)cc2F)sc2nc3c(cc12)N1CCC3CC1 | 1% | -29% |
| Cc1ccccc1-n1c(/C=C/c2ccc(O)cc2)nc2ccccc2c1=O | u | u |
| c1ccc2c(CN3CCNCC3)cccc2c1 | x | 2% |
| O=C(O)C(Cl)Cl | x | 6% |
| COC1=C[C@@H]2[C@@H]3Cc4ccc(OC)c(O)c4[C@]2(CCN3C)CC1=O | x | u |
| COc1ccc(NC(=O)CN2C(=O)C(C)N=C(c3ccccc3)c3ccccc32)cc1OC (stereo unspecified) | 9% | 5% |

Part of the list above, with values under each structure.
Results follow in this order: PMP22 txn prim	HTT promoter inh
- O=c1[nH]c2ccc(Cl)cc2c(N[C@@H]2CN3CCC2CC3)c1-c1nc2ccccc2[nH]1
→ x	u
- O=c1[nH]c2ccccc2c(=O)n1-c1ccc(Cl)c(Cl)c1
→ 5%	4%
- O=C(CN1C(=O)CN=C(c2ccccc2)c2ccccc21)Nc1cccc(C(F)(F)F)c1
→ -23%	-19%
- Cc1sc2c(c1C)C(c1ccc(Cl)cc1)=N[C@@H](CC(=O)Nc1ccc(O)cc1)c1nnc(C)n1-2
→ x	71%[activator]
- CCCC[N+]1(C)[C@@H]2CC(OC(=O)[C@H](CO)c3ccccc3)C[C@H]1[C@@H]1O[C@@H]12 (stereo partly specified)
→ x	-1%
- CC(C)(C)NC[C@H](O)c1ccc(O)cc1Cl
→ x	-2%
- COP(=S)(OC)Oc1ccc(Sc2ccc(OP(=S)(OC)OC)cc2)cc1
→ x	-1%
- O=C1c2ccccc2C(=O)c2ccccc21
→ x	-3%[25.2 µM]
- COc1cc(CCN)cc(OC)c1OC
→ x	-14%[116 µM]
- CCOP(=S)(OCC)Oc1ccc2c(C)c(Cl)c(=O)oc2c1
→ x	14%
- Cc1cc(C)cc(-n2c(=O)[nH]c3ccccc3c2=O)c1
→ 2%	-10%
- CC(C)=CC1C(C(=O)OCN2C(=O)C3=C(CCCC3)C2=O)C1(C)C (stereo unspecified)
→ x	-10%
- CC(C)(N)Cc1ccc(Cl)cc1
→ x	12%
- COC(=O)[C@@H](N)CCCN=C(N)N[N+](=O)[O-]
→ x	-25%
- CC[C@]1(O)CC[C@H]2[C@@H]3CCC4=CCCC[C@@H]4[C@H]3CC[C@@]21C
→ x	-7%
- Cc1nc2ccccc2c(=O)n1-c1ccccc1Cl
→ x	-18%[116 µM]
- NC(=O)CN1CCCC1=O
→ x	-4%
- CC1=C2C[C@@H]3[C@@H](CC=C4C[C@@H](O)CC[C@@]43C)[C@@H]2CC[C@]12O[C@H]1C[C@H](C)CN[C@H]1[C@H]2C
→ x	9%
- NC(=O)c1cc([N+](=O)[O-])cc([N+](=O)[O-])c1
→ x	4%
- Nc1c(C(=O)Nc2ccc(Br)cc2F)sc2nc3c(cc12)N1CCC3CC1
→ 1%	-29%
- Cc1ccccc1-n1c(/C=C/c2ccc(O)cc2)nc2ccccc2c1=O
→ u	u
- c1ccc2c(CN3CCNCC3)cccc2c1
→ x	2%

(list continues)
| mol | PMP22 txn prim | HTT promoter inh |
| --- | --- | --- |
| COc1ccc(-n2c(/C=C/c3cccc(F)c3)nc3ccccc3c2=O)cc1Cl | -7% | u |
| CC(C)N[C@@H]1CCn2c(=O)[nH]c3cccc(c32)[C@@H]1O | x | u |
| COP(=S)(OC)Oc1ccc(S(=O)(=O)N(C)C)cc1 | x | 4% |
| CN[C@@H](C)[C@H](O)c1ccccc1 | x | -6% |
| c1ccc2c(c1)sc1ccccc12 | x | -1% |
| C[N+]1(C)[C@@H]2CC[C@H]1CC(OC(=O)C(CO)c1ccccc1)C2 (stereo partly specified) | x | 2% |
| COCC(=O)N(c1c(C)cccc1C)C(C)C(=O)OC (stereo unspecified) | x | -8% |
| COc1ccc(C(=O)c2c(C)n(CCN3CCOCC3)c3cc(I)ccc23)cc1 | x | u |
| COc1nn(CSP(=S)(OC)OC)c(=O)s1 | x | -16%[116 µM] |
| Nc1ccccc1C(=O)OCC(O)CO (stereo unspecified) | x | 13% |

Other results:
| mol | PMP22 txn prim | HTT promoter inh |
| --- | --- | --- |
| c1cc2c(cc1[C@H]1OC[C@H]3[C@H]1CO[C@H]3c1ccc3c(c1)OCO3)OCO2 | x | -20% |
| CC(C)[N+](C)(CCC(C(N)=O)(c1ccccc1)c1ccccc1)C(C)C | x | 5% |
| CCN(CC)C(=O)c1ccc(NC(=O)c2ccc(-c3nn(C)c(=O)c4ccccc34)cc2)cc1 | -7% | -7% |
| O=C(c1ccc2c(c1)N(Cc1ccc(F)cc1Cl)C(=O)c1ccccc1S2)N1CCC2(CC1)OCCO2 | u | u |
| Cc1ccc(Cn2cccc(C(=O)Nc3ccc4c(c3)OCO4)c2=O)cc1 | u | -13% |
